From PubChem BioAssay
Mtb H37Rv – M. tuberculosis H37Rv growth inhibitors, H37Rv strain (AID 1626); M. tuberculosis H37Rv growth inhibition; higher % means a stronger effect; actives 0.95% (n = 220,000); inhibition, % at 10 µM; hits with a dose series show IC50 in µM;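 active = confirmed in a dose series; inconclusive = inhibition above 80% but not taken into the dose series; inactive = below 80% or under 30% at every dose of the series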;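 also: bacteria incubated seven days before Alamar blue readout; 0% = bacteria only wells and 100% = bacteria with antibiotic wells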
Mtb betalactam – beta-lactam sensitization of Mtb H37Rv; actives 0.27% (n = 330,000); AID 434955; M. tuberculosis H37Rv growth with meropenem, percent inhibition; hits of this screen are not shown here; inhibition, % at 25 µM;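 active = about 74% or more and at least 40 points above the plate without the antibiotic, then above 30% in a dose series; inconclusive = first-round hits that could not be retested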;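 also: growth measured after seven days incubation then overnight dye step; 0% = bacteria only wells and 100% = bacteria with antibiotic; twin plates without the antibiotic show which effects depend on it; some results filed as inactive read as strong as hits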
Arbovirus inh – blocks arbovirus infection. AID 1251. arbovirus infection cell-based antiviral screen. actives 0.37% (n = 200,000). inhibition, % at 10 µM;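 active = inhibition from about 30%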;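 also: bluetongue infection of BSR cells; cell survival read as ATP light after 72 h; 0% = infected wells without compound and 100% = uninfected wells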
YopH PTP inh – blocks Yersinia enterocolitica YopH tyrosine phosphatase; fluorescence Ex485/Em525; inhibition, %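 (about 10 µM by stock and volumes)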; AID 898; actives 0.16% (n = 140,000);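 active = inhibition of 50% or more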;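 also: controls were vehicle for no effect and minimum signal wells for full effect; inactives centre near -20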
RecA intein inh – blocks M. tuberculosis RecA intein splicing. P9WHJ3. cell-free RecA intein splicing, fluorescence. inhibition, %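 (about 9 µM by stock and volumes)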. actives 0.75% (n = 290,000); in the data active = inhibition above about 30%; inconclusive = no clear call, values can overlap the other calls;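 also: 0% = vehicle wells and 100% = reference inhibitor control wells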
Target sequence (P9WHJ3 whole entry, looked up): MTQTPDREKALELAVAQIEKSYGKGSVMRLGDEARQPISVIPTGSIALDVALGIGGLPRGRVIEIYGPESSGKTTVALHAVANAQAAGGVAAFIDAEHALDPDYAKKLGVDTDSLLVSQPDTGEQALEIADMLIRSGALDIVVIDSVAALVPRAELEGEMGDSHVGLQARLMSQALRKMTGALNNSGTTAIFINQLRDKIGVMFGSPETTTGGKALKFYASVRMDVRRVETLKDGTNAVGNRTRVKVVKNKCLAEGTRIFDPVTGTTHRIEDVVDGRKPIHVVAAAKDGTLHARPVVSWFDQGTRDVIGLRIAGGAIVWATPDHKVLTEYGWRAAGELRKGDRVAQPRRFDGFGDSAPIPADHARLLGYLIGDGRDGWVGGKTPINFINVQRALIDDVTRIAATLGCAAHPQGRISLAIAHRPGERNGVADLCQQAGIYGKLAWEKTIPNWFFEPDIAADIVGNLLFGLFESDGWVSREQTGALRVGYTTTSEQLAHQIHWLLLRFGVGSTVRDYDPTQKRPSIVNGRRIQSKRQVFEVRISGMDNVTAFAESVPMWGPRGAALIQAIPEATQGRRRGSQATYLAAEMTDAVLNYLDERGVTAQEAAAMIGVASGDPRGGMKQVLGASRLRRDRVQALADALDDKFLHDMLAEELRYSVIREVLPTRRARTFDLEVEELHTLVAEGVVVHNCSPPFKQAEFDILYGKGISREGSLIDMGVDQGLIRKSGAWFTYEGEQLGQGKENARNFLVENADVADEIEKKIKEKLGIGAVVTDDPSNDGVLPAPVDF
Arbovirus inh repeat – also measured in Arbovirus inh; calls as there; inhibition, %; measured here: 10K subset replicate screen; many hits read low in the repeat;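 first of two repeat runs on a subset; 0% = infected and 100% = uninfected wells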
Starred values were filed as active, the others as inactive; ? = inconclusive; nt = not tested or not shown.

The first 5 entries, to show the layout:
SMILES	Mtb H37Rv	Mtb betalactam	Arbovirus inh	YopH PTP inh	RecA intein inh	others
CCn1c(=O)c(C(=O)NCCNCCO)c(O)c2ccccc21	-8%	-3	-11	-4	-2.6
Cc1ccc(N2C(=O)CN=C2Nc2nc(C)cc(C)n2)cc1	-8%	-5	nt	nt	-1.8
Cn1c(N2CCN(C(c3ccccc3)c3ccccc3)CC2)nc2c1c(=O)[nH]c(=O)n2C	nt	31	nt	nt	-0.8
Clc1ccc(OCc2cc(-c3ccccc3)no2)cc1Cl	10%	14	0	-16	2.2
CN1CCC(N(C)C(=O)CCc2nc3ccccc3n2-c2ccccc2)CC1	1%	1	8	nt	0.0

The listing (from the top)
SMILES	Mtb H37Rv	Mtb betalactam	Arbovirus inh	YopH PTP inh	RecA intein inh	others
CCn1c(=O)c(C(=O)NCCNCCO)c(O)c2ccccc21	-8%	-3	-11	-4	-2.6
Cc1ccc(N2C(=O)CN=C2Nc2nc(C)cc(C)n2)cc1	-8%	-5	nt	nt	-1.8
Cn1c(N2CCN(C(c3ccccc3)c3ccccc3)CC2)nc2c1c(=O)[nH]c(=O)n2C	nt	31	nt	nt	-0.8
Clc1ccc(OCc2cc(-c3ccccc3)no2)cc1Cl	10%	14	0	-16	2.2
CN1CCC(N(C)C(=O)CCc2nc3ccccc3n2-c2ccccc2)CC1	1%	1	8	nt	0.0
Cn1c(=O)oc2cc(S(=O)(=O)Nc3ccccc3O)ccc21	nt	-4	nt	nt	-0.6
CCN(CC(=O)Nc1ccc(NC(C)=O)cc1)C(=O)c1ccccc1SCc1c(C)noc1C	nt	3	nt	nt	2.4
Cc1cc(NC(=O)CSc2ncccn2)no1	-6%	2	3	-9	-0.5
COc1cc(C(O)CNC(C)C)cc(F)c1OC (stereo unspecified)	-11%	-3	nt	nt	-1.5
CC1CCN(CCCn2c(=S)[nH]c3ccccc3c2=O)CC1	-5%	-17	-8	-26	0.6	Arbovirus inh repeat=1
CCOC(=O)C1CCN(C(=O)COc2ccc(Cl)cc2C)CC1	1%	-6	6	-12	2.7
Cc1ccnc2nc(C(=O)NC3CCCc4ccccc43)nn12 (stereo unspecified)	3%	12	3	nt	-1.4
O=S(=O)(c1ccccc1)c1ncc(C(F)(F)F)cc1O	nt	12	5	nt	3.0
CC(C)=CCN1CCN(Cc2cnc(N3CCOCC3)s2)CC1CCO (stereo unspecified)	-11%	-3	-1	nt	-1.3
COC(=O)c1ccc(N(CC(=O)NC2CCCCC2)C(=O)CNC(=O)c2ccco2)cc1	nt	-1	nt	nt	2.4
CC1CCCC(C)N1C(=O)COC(=O)CCc1nc2ccccc2c(=O)[nH]1 (stereo unspecified)	-5%	9	2	-26	-3.4
O=C(NCCCn1ccnc1)C(=O)NCC(c1cccnc1)N1CCN(c2ccc(F)cc2)CC1 (stereo unspecified)	1%	4	4	-24	-5.8
CC(C)Oc1cc(S(=O)(=O)N2CCCCC2)ccc1N	-8%	-1	15	nt	0.1
CCOC(=O)CNC(=O)COc1ccc(Cl)cc1Br	-9%	14	-3	-17	0.4
COc1ccc(NC(=O)c2cccc(S(=O)(=O)Nc3ccc(Br)cc3)c2)cn1	7%	60	10	1	3.8
CC1CCCCN1S(=O)(=O)c1ccc(C(=O)N(CCCN(C)C)c2nc3cc4c(cc3s2)OCO4)cc1 (stereo unspecified)	nt	6	nt	nt	1.0
O=C1CC(SCCO)C(=O)N1c1ccc(Oc2ccccc2)cc1 (stereo unspecified)	-5%	-7	6	-11	2.0
CN(C)C(=O)CNC(=O)CN1C(=O)NC2(CCCc3sccc32)C1=O (stereo unspecified)	nt	-10	nt	nt	-3.6
CC(C)(C)NC(=O)C[n+]1ccc(C(N)=O)cc1	-4%	3	7	nt	0.5
Cc1cc2ccccn2c1C(=O)Nc1cccc(Cl)c1	-5%	-4	3	nt	-1.8
CC(=O)C1=C(C)NC(SCc2cccc([N+](=O)[O-])c2)=C(C#N)C1c1ccco1 (stereo unspecified)	nt	-10	8	-35	7.8
O=[N+]([O-])c1ccc(NC(=S)NCC(c2cccnc2)N2CCOCC2)cc1 (stereo unspecified)	-4%	1	-10	nt	-0.9
CCOC(=O)C(=NC1CCS(=O)(=O)C1)NNc1cc(Cl)ccc1Cl (stereo unspecified)	6%	-7	nt	nt	-4.5
O=c1ccn(-c2ccccc2)[nH]1	?	99	4	nt	0.0
Cc1ccc(S(=O)(=O)N2CN3CCN(C3)C2)cc1	-13%	43	-3	-53	0.0
CCOc1ccc2oc(=O)cc(CN3CCN(C(=O)c4ccco4)CC3)c2c1	nt	11	nt	nt	-2.0
C/C(=N\NC(=O)Cc1ccccc1Cl)c1cccnc1	nt	-5	nt	nt	-4.4
CN(Cc1nccn1C)C(=O)CCc1nnc(CCC2CCCCC2)o1	-6%	-6	2	nt	1.7
NC(=O)CCCC1=NS(=O)(=O)c2ccccc2N1	-12%	-7	-2	-35	-0.8
COc1ccc(-c2nc3ccccc3c(=O)n2NC(=O)c2cccnc2Cl)cc1OC	-4%	-1	4	-12	-0.5
COc1ccc(-n2c(C)cc(/C=C3\C(=N)N4N=C(CC(=O)N5CCOCC5)SC4=NC3=O)c2C)cc1	nt	1	nt	nt	-1.7
O=C(O)C1(c2ccccc2)CCN(S(=O)(=O)c2ccc(F)c(F)c2)CC1	nt	2	nt	nt	0.7
COc1ncccc1-c1nnn(-c2ccc(Cl)c(Cl)c2)n1	3%	0	1	nt	3.6
Cc1cccc(N2C(=O)C3CC3C2=O)c1 (stereo unspecified)	4%	3	-2	nt	-0.8
COc1ccc(N2CCN(C(CNC(=O)c3ccc4c(c3)OCO4)c3cccnc3)CC2)cc1 (stereo unspecified)	-5%	-7	14	8	-1.5
CCNS(=O)(=O)c1ccc(NC(=O)Nc2ccc3c(c2)OCO3)cc1	nt	-12	nt	nt	-0.3
COc1cccc(C2=NOC(C(=O)NC3CCCCC3)C2)c1 (stereo unspecified)	12%	nt	6	-27	0.8
N/C(CS(=O)(=O)c1ccccn1)=N\OC(=O)c1ccc(Cl)cc1	-2%	2	nt	nt	-3.4
Cn1c(=O)c2c(ncn2CC(=O)OCC(=O)Nc2cccc(Cl)c2)n(C)c1=O	6%	3	5	nt	4.8
Cc1occc1-c1nnc(SCC(=O)N(C)CCC#N)n1N	-2%	-3	8	-4	4.7
Cc1cccc(NC(=O)CN2CCc3cc4c(cc3C2)OCCCO4)c1	nt	-5	nt	nt	1.7
CC1=CC(C)C(C(=O)O)C(C(=O)N2CCN(C)CC2)C1 (stereo unspecified)	-7%	2	6	nt	0.2
Cc1ccc(N(C(=O)c2csnn2)C(C(=O)NC2CCCC2)c2ccccn2)c(C)c1 (stereo unspecified)	nt	-3	nt	nt	0.5
CC(=O)NCCOc1nc(N(C)C)nc(N(C)C)n1	2%	-2	2	4	0.5
CN(/N=C/c1ccc(C(C)(C)C)cc1)C1=NCCN1	1%	-4	-5	nt	1.6
CSc1nsc(SCC(=O)NC2CCCCC2)n1	37%	89	1	7	2.9
COc1ccc(C2=NOC(C(=O)O)C2)cc1 (stereo unspecified)	-4%	-3	14	0	-0.4
CN(C)C(CNC(=O)c1ccc(NS(=O)(=O)c2ccc(F)c(F)c2)cc1)c1ccccc1 (stereo unspecified)	nt	5	nt	nt	-8.7
COc1ccc(N2CCN(S(=O)(=O)CCNC(=O)c3cc(=O)c4ccccc4o3)CC2)cc1	nt	3	nt	nt	-3.4
COC(=O)C1=C(C)N=C2SC(C)C(=O)N2C1/C=C/c1ccccc1 (stereo unspecified)	-8%	6	-2	-8	-0.1
NC(N)=NC(N)=Nc1ccc(O)cc1	-10%	4	nt	nt	-2.0
CCOc1cc(CNn2nnnc2N)cc(Cl)c1OCC(=O)NC(C)(C)C	1%	-2	1	-6	1.1
N#Cc1cc(Cl)c(N2CCOCC2)cc1C#N	4%	-2	4	3	0.3
CN(C)c1ccc(NC(=O)CC(NCc2ccccn2)C(=O)O)cc1 (stereo unspecified)	0%	7	1	6	-14
Cc1c(F)cccc1NS(=O)(=O)c1ccc2c(c1)NC(=O)CO2	-8%	-1	4	nt	-6.6

Three compounds drawn at random from those above:
SMILES	Mtb H37Rv	Mtb betalactam	Arbovirus inh	YopH PTP inh	RecA intein inh	others
CCOC(=O)CNC(=O)COc1ccc(Cl)cc1Br	-9%	14	-3	-17	0.4
CC1CCCCN1S(=O)(=O)c1ccc(C(=O)N(CCCN(C)C)c2nc3cc4c(cc3s2)OCO4)cc1 (stereo unspecified)	nt	6	nt	nt	1.0
CN(C)C(CNC(=O)c1ccc(NS(=O)(=O)c2ccc(F)c(F)c2)cc1)c1ccccc1 (stereo unspecified)	nt	5	nt	nt	-8.7

Additional structures follow:
SMILES	Mtb H37Rv	Mtb betalactam	Arbovirus inh	YopH PTP inh	RecA intein inh	others
CC(=O)Oc1ccc(/C=N/NC2=NS(=O)(=O)c3ccccc32)cc1	nt	12	nt	nt	-3.2
COc1ccc(C(=O)NCc2ccc(-c3nc4ccccc4s3)cc2)cc1OC	1%	-15	-16	16	5.9
CCC1(c2ccccc2)NC(=O)N(Cc2cccc([N+](=O)[O-])c2)C1=O (stereo unspecified)	8%	-3	4	nt	0.5
CSc1nc(Oc2cccc(C(F)(F)F)c2)cc(C(F)(F)F)n1	0%	-7	5	-20	5.5
CCCOC(=O)CCCCC1SCC(NC(=O)OC)C1NC(=O)OC (stereo unspecified)	-13%	0	4	-20	3.2
CCOc1ccccc1NC(=O)CCc1c(C)nn(-c2ccc(N3CCCCC3)nn2)c1C	nt	-9	nt	nt	-3.5
CCOC(=O)C1=C(C)N=C2c3ccccc3C(=O)C2C1c1ccccc1 (stereo unspecified)	3%	-1	-4	-14	nt
COc1ccc(/C=C(\NC(=O)c2ccc(C)cc2)C(=O)Nc2ccc(C(=O)O)cc2)cc1	nt	5	nt	nt	1.8
Cc1ccccc1C1CC(c2cccs2)=NN1S(C)(=O)=O (stereo unspecified)	-3%	0	-4	nt	-4.2
CCCC(C(=O)Nc1ccc2c(C)cc(=O)oc2c1)c1ccccc1 (stereo unspecified)	nt	-7	nt	nt	-0.5
Cc1cc(C)cc(NC(=O)COc2coc(CN3CCc4ccccc4C3)cc2=O)c1	nt	0	nt	nt	-1.0
COC(=O)c1cccnc1-n1c(=O)c2cccnc2n(Cc2cccc([N+](=O)[O-])c2)c1=O	4%	4	4	nt	4.8
CC1CC(=O)NN=C1c1ccc(N(C)C)c([N+](=O)[O-])c1 (stereo unspecified)	-14%	-10	-2	-31	-1.9
Cc1cc(N2C(=O)CC(Cc3ccccc3)C2=O)no1 (stereo unspecified)	-8%	3	18	-48	1.1	Arbovirus inh repeat=3
Cc1cc(=O)[nH]c(SCc2ccc(Cl)cc2Cl)n1	nt	0	nt	nt	-4.0
Cc1ccc(OCC(O)Cn2c(=N)n(CCN3CCCCC3)c3ccccc32)cc1 (stereo unspecified)	?	-4	-32	-4	2.1
CC(NC(=O)C1CCCN(S(=O)(=O)c2ccc(-n3cnnn3)cc2)C1)c1ccc(F)cc1 (stereo unspecified)	nt	6	nt	nt	-2.2
CCCCn1nc(-c2ccccc2)c2nc3ccccc3nc21	0%	3	7	16	-141
CC(C)Oc1ccc(/C(O)=C2/C(=O)C(=O)N(CCCn3ccnc3)C2c2cccnc2)cc1 (stereo unspecified)	-17%	-1	7	-22	0.4
N#Cc1ccccc1OCC(=O)NCCNC(=O)COc1ccccc1C#N	nt	-8	nt	nt	-2.8
c1ccc2c(c1)ncn2-c1ccc(-c2ccnc3ncnn23)cc1	-3%	-2	8	nt	-0.5
Cc1ccc(C2=NN(C(=O)CCCC(=O)O)C(c3ccco3)C2)cc1 (stereo unspecified)	1%	2	4	nt	nt
CCOc1ncccc1C(=O)OCC(=O)c1ccc(Cl)s1	-13%	3	-5	-10	1.2
Cc1onc(-c2ccccc2)c1C(=O)N/N=C(\N)COc1ccc(Cl)cc1	-4%	-8	-14	-21	-1.8
N#Cc1c(/N=C/c2cc3ccccc3s2)sc2c1CCC2	-3%	-5	-5	5	0.5

Part of the list above in order of formula weight, smallest number first:
SMILES	Mtb H37Rv	Mtb betalactam	Arbovirus inh	YopH PTP inh	RecA intein inh	others
CC1CCN(CCCn2c(=S)[nH]c3ccccc3c2=O)CC1	-5%	-17	-8	-26	0.6	Arbovirus inh repeat=1
Cc1cc(C)cc(NC(=O)COc2coc(CN3CCc4ccccc4C3)cc2=O)c1	nt	0	nt	nt	-1.0
CC(NC(=O)C1CCCN(S(=O)(=O)c2ccc(-n3cnnn3)cc2)C1)c1ccc(F)cc1 (stereo unspecified)	nt	6	nt	nt	-2.2

Not all compounds are listed (hit frequency here may not be typical).
